From PubChem BioAssay
GIV-Gai inh: blocks GIV peptide binding to rat Galpha-i3; P08753; AID 1224905; Galpha-i3/FITC-GIV peptide fluorescence polarization, 90 min; hits give low values; scaled: aluminum fluoride 0%, vehicle 100%; 210,000 tested, 0.42% active; percent of control (FP), % (test concentration not listed);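 active means replicate mean at 85% of control or lower, very high polarization wells dropped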;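 further: wells of about 15 µL received 100 nL stock; the first replicate is given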
Target sequence (P08753 whole entry, looked up): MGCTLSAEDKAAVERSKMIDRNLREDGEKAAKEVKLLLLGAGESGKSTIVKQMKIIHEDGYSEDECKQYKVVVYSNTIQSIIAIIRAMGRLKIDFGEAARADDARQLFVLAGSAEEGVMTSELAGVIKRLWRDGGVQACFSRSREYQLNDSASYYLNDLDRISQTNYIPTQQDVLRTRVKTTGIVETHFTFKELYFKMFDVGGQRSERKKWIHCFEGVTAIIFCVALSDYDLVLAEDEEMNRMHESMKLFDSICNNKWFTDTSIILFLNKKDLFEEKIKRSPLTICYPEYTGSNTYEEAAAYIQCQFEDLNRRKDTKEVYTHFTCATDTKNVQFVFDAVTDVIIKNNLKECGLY
The depositor's hits bear a star.

SMILES | GIV-Gai inh
Cc1sc(-c2cc(C(F)(F)F)on2)cc1S(=O)(=O)N1CCCc2ccccc21 | 96
O=C(NC1CCS(=O)(=O)C1)c1cccc(NC(=O)c2nsc3ccccc23)c1 (configuration not stated) | 104
Cc1ccc(C)c(Cn2nc3c(S(=O)(=O)N4CCc5ccccc5C4)cccn3c2=O)c1 | 108
CCCCCCCCCCCCCCCCN1C=C/C(=C\C=C(\C#N)C(=O)OCC)c2ccccc21 | 109
Cc1cccc(-c2noc(-c3cccnc3N3CCC(C(=O)NCc4ccc(F)cc4F)CC3)n2)c1 | 104
CCn1c(CCc2ccc(NS(=O)(=O)c3ccc(Br)cc3)cc2)nc2ccccc21 | 97
COc1nc(N2CCOCC2)nc(-n2nnc(C(C)=O)c2C)n1 | 109
CCOC(=O)N1CCC(Nc2nccc(-n3nc(C)cc3C)n2)CC1 | 110
O=CC12c3ccccc3C(c3ccccc31)C1C(=O)N(c3ccccc3F)C(=O)C12 (configuration not stated) | 115
CCOC(=O)c1sc2nc(SCC(=O)Nc3ccc(N(C)C)cc3)n(Cc3ccco3)c(=O)c2c1C | 109
CCOC(=O)C1=C(O)/C(=C/c2ccc(OC)cc2)SC1=Nc1cccc(Cl)c1 | 110
CCOC(=O)c1c(C)n(C)c2ccc(OC)c(S(=O)(=O)c3ccc(OC)cc3)c12 | 103
CCc1ccc(N(C)S(=O)(=O)c2ccc3[nH]cc(C(=O)NCCCN4CCOCC4)c(=O)c3c2)cc1 | 108
O=C(C1CCCCC1)N1CCCN(Cc2noc(-c3ccccc3)n2)CC1 | 101
CCCOCC1OC2OC3(CCCCC3)OC2C2OC3(CCCCC3)OC12 (configuration not stated) | 111
COc1cc(C2C(C#N)=C(N)Oc3n[nH]c(-c4ccc(C)cc4)c32)ccc1OC(=O)c1ccco1 (configuration not stated) | 114
Cc1cccc(N2CCN(C(=O)c3cccn4c(=O)c5ccccc5nc34)CC2)c1C | 96
CCC(=O)Nc1nc(-c2cccc([N+](=O)[O-])c2)nc2c1c(=O)oc1ccccc12 | 113
O=C(NC1CC1)c1c(-n2cccc2)sc2c1CCC2 | 104
O=[N+]([O-])c1ccc(Nc2nc(Cl)nc(NCc3ccco3)n2)cc1 | 105
COC(=O)C1=C(C)NC2=C(C(=O)CC(c3ccccc3OC)C2)C1c1ccc(OC)c(Br)c1 (configuration not stated) | 108
O=C(NC1CCCC1)c1csc(N2CCCC2)n1 | 99
O=C(c1nc(-c2csc(S(=O)(=O)N3CCCCC3)c2)no1)N1CCOCC1 | 102
Cc1nn(-c2nc3ccccc3o2)c2c1C(c1c(F)cccc1F)CC(=O)N2 (configuration not stated) | 100
CC(=O)Nc1ccc(NC(=O)CSc2nc3ccccc3n2S(=O)(=O)c2ccc(Cl)cc2)cc1 | 120
O=C(CSc1nnc(-c2cccnc2)n1-c1ccc(Br)cc1)c1c[nH]c2ccccc12 | 99
COc1ccc(OCC(=O)N2CCN(c3ncnc4c3nnn4-c3ccc(Cl)cc3)CC2)cc1 | 99
CCOc1ccc(N/C(SCc2ccc(C)cc2)=C(/C#N)C(=O)Nc2ccccc2)cc1 | 108
COc1cccc(C(=O)NCc2nnc(SCC(=O)N3N=C(c4cccs4)CC3c3ccc(F)cc3)n2C)c1 (configuration not stated) | 108
CCN1CCC(CCNC(=O)c2nc(N3CCC(C)CC3)c3cn(C)nc3n2)CC1 | 104
Cn1cnnc1SCc1nc(N)nc(Nc2ccccc2)n1 | 107
NC(=O)C1CCN(C(=O)c2ccc3c(=O)n(-c4ccccc4)c(SCC(=O)c4ccccc4)nc3c2)CC1 | 109
O=C1C2=C(C(c3ccccc3)=NCCN2)C(c2cccc(F)c2)N1c1ccccc1 (configuration not stated) | 109
Cc1ccccc1S(=O)(=O)N1CCOc2ccc(COCc3ccc(F)cc3)cc2C1 | 97
O=C(NCc1ccccc1)C1CCN(C(=O)c2cccc(NS(=O)(=O)c3ccccc3)c2)CC1 | 109
Cc1cccc(NC(=O)c2ccc3nnc(SCC(=O)Nc4cc(Cl)ccc4C)n3c2)c1 | 100
Cn1nc(C(=O)N2CCCC2)c2c1CCN(C(=O)CCC(=O)NCc1ccccn1)C2 | 107
CC1(C)CC(=O)C2=C(C1)N(c1ccccc1F)C1=C(C(=O)c3ccccc31)C2c1ccccc1 (configuration not stated) | 100
CC(=O)Nc1ccc(N=Cc2c(C)[nH]n(-c3ccc(C)cc3)c2=O)cc1 | 122
COC(=O)C1C(=O)NC(SCC(=O)Nc2ccc(F)cc2)=C(C#N)C1c1ccccc1F (configuration not stated) | 106
Cc1ccsc1-c1nnc(C2CCOC2)o1 (configuration not stated) | 106
CC(C)(C)c1csc(-c2csc(S(=O)(=O)Nc3ccccc3)c2)n1 | 102
Cc1c(C(=O)NCc2ccccn2)sc2ncnc(N3CCN(c4ccccc4)CC3)c12 | 102
CCCS(=O)(=O)N1CCc2c(c(-c3nc(C4CC4)no3)nn2C)C1 | 102
CCCS(=O)(=O)c1c(S(=O)(=O)CCC)c2ccccn2c1C(=O)N/N=C/c1cccc(F)c1 | 110
Cc1c(Cl)cccc1NC(=O)CCc1nc(CSc2nnc(-c3ccccc3)o2)no1 | 101
COc1ccccc1-c1cc2n(C)c(C)c(CCC(=O)N3CCN(C)CC3)c(=O)n2n1 | 107
CCCCn1c(CNC(=O)COc2ccccc2)nnc1SC(C)C(=O)Nc1sc2c(c1C(=O)OCC)CCCCC2 (configuration not stated) | 108
CC(C)(C)c1ccc(O)c(NC(=O)c2cn(-c3ccc(S(=O)(=O)N4CCCCC4)cc3)cn2)c1 | 201
O=C(Nc1cccc(-c2nnc(-c3ccccc3)o2)c1)Nc1ccccc1Br | 100
(more compounds)
SMILES | GIV-Gai inh
O=C1CN(Cc2cccc(Br)c2)S(=O)(=O)c2ccccc2N1Cc1ccccc1F | 104
Cc1c(Cl)cccc1N1C(=O)C2C(c3ccc(Cl)cc3)OC3(C(=O)c4ccccc4C3=O)C2C1=O (configuration not stated) | 113
Cc1nc2cc(-c3noc(-c4cnccn4)n3)ccc2o1 | 96
COC(=O)c1cccc(N2C(=O)/C(=C/c3ccc(Cl)cc3)C=C2c2ccccc2)c1 | 116
C1=C(c2ccc3c(c2)OCO3)Nc2ncnn2C1c1cccs1 (configuration not stated) | -22*
CCOc1ccc(C2=NN3C(C2)c2cccc(OCC)c2OC3c2ccccc2Cl)cc1 (configuration not stated) | 104
CCOc1ccc(C2C(N3C(=O)c4ccc([N+](=O)[O-])cc4C3=O)C(=O)N2c2ccc(Br)cc2)cc1 (configuration not stated) | 117
COc1ccc(CCNC(=O)CCn2c(SCC(=O)c3ccc(F)cc3)nc3ccccc3c2=O)cc1OC | 110
COC(=O)c1cccc(N2COc3ccc4c(C)cc(=O)oc4c3C2)c1 | 104
O=C(NCc1ccc(N2CCCC2)cc1)c1sc2ncccc2c1-n1cccc1 | 104

Shown as a markdown table: entries from further up.
| SMILES | GIV-Gai inh |
| --- | --- |
| COc1ccc(CCNC(=O)CCn2c(SCC(=O)c3ccc(F)cc3)nc3ccccc3c2=O)cc1OC | 110 |
| CCOc1ccc(C2=NN3C(C2)c2cccc(OCC)c2OC3c2ccccc2Cl)cc1 (configuration not stated) | 104 |

4 of the compounds above, field by field:
> Cc1nc2cc(-c3noc(-c4cnccn4)n3)ccc2o1
- GIV-Gai inh: 96
> COC(=O)c1cccc(N2C(=O)/C(=C/c3ccc(Cl)cc3)C=C2c2ccccc2)c1
- GIV-Gai inh: 116
> C1=C(c2ccc3c(c2)OCO3)Nc2ncnn2C1c1cccs1 (configuration not stated)
- GIV-Gai inh: -22*
> CCOc1ccc(C2=NN3C(C2)c2cccc(OCC)c2OC3c2ccccc2Cl)cc1 (configuration not stated)
- GIV-Gai inh: 104

Remaining list, next part:
SMILES | GIV-Gai inh
CCn1c(=O)n(CC(=O)Nc2ccc(F)cc2Cl)c(=O)c2ccccc21 | 106
Cc1cccc(SCc2cc(=O)n3oc(C)cc3n2)c1 | 102
c1ccc(Cn2cnnc2C2CCCN(Cc3cccs3)C2)cc1 (configuration not stated) | 102
COc1ccc(CN2CCCC2c2cc(C)on2)cc1 (configuration not stated) | 109
CC(C)NC(=O)C1CCCN(S(=O)(=O)c2cc(-c3noc(C4CCC4)n3)cs2)C1 (configuration not stated) | 98
C=CCNC(=O)C1CCCN(C(=O)c2cccc(NS(=O)(=O)c3ccc(C(C)(C)C)cc3)c2)C1 (configuration not stated) | 107
COc1ccc(NC(=O)CSc2nccc3c2ccn3C)cc1OC | 112
Cc1c(N(CC(=O)N/N=C/c2ccccn2)S(=O)(=O)c2ccccc2)c(=O)n(-c2ccccc2)n1C | 109
O=S(=O)(c1ccc2c(c1)CCCC2)N1CCC2(CC1)NCCN=C2NC1CCCCCC1 | 106
CCc1ccc(S(=O)(=O)c2cnc(N3CCN(c4cccc(Cl)c4)CC3)nc2N)cc1 | 104
Clc1ccc(-n2ncc3c(N4CCN(Cc5ccccc5)CC4)ncnc32)cc1 | 104
COc1ccc(-c2cc(C(=O)Nc3ccccc3C(=O)O)c3ccccc3n2)cc1OC | 116
CC(C)NC(=O)c1ccc(-c2cc(N3CCCC3)ncn2)cc1 | 106
O=[N+]([O-])c1ccc(O)c(-c2nc(-c3ccccc3)c(-c3ccc(-c4ccccc4)cc3)[nH]2)c1 | 113
O=C(CSc1nc2[nH]ncc2c(=O)n1-c1ccccc1)Nc1cc(Sc2ccc(F)cc2)cc([N+](=O)[O-])c1 | 121
Cc1nc(-c2csc(S(=O)(=O)N3CCCC(C(=O)N4CCCCC4)C3)c2)no1 (configuration not stated) | 106
COc1ccc(C2C3=C(CC(C)(C)CC3=O)Nc3[nH]c(=O)[nH]c(=O)c32)cc1OC (configuration not stated) | 107
CC1CCCN(c2ccc(-c3noc(CN4CCOCC4)n3)cn2)C1 (configuration not stated) | 107
COC(=O)c1ccc(C(=O)OC)c(NC(=O)c2cc3cc(OC)ccc3oc2=O)c1 | 108
CCCCNC(=O)c1sc2ncnc(N3CCN(c4ccccc4)CC3)c2c1C | 103
CCN(CC)c1ncnc2c1sc1nc(N3CCOCC3)c3c(c12)CC(C)(C)OC3 | 105
Cc1cccc(-c2nc3ccccc3c3nnc(SCC(=O)NC(C)C)n23)c1 | 98
Cc1cccc(-c2noc(-c3cccnc3N3CCC(C(=O)NCC4CCCCC4)CC3)n2)c1 | 108
Cc1ccc(-n2cc(C(=O)N3CCCC3)nn2)cc1 | 100
O=C(NCc1ccccc1)C1CCCN(c2ncnc3c2oc2ccccc23)C1 (configuration not stated) | 100
COc1cc(Nc2nc(SCc3ccncc3)nc3ccccc23)cc(OC)c1 | 107
Cc1ccc(C2CCCCCN2C(=O)Nc2ccc3c(c2)OCO3)s1 (configuration not stated) | 105
O=C(O)c1ccc(N=c2oc3cc(O)ccc3cc2C(=O)Nc2ccc(Cl)cc2)cc1 | 172
Cc1ccc(S(=O)(=O)N2Cc3ccccc3CC2C(=O)NCc2cccc(Cl)c2)cc1 (configuration not stated) | 105
Cc1ccc(-c2noc(Cc3nc(-c4cc(C)ccc4C)cs3)n2)cc1 | 101

Ordered by SMILES length (low to high): 3 of the compounds above.
SMILES | GIV-Gai inh
COc1nc(N2CCOCC2)nc(-n2nnc(C(C)=O)c2C)n1 | 109
CC1CCCN(c2ccc(-c3noc(CN4CCOCC4)n3)cn2)C1 (configuration not stated) | 107
CCOC(=O)c1c(C)n(C)c2ccc(OC)c(S(=O)(=O)c3ccc(OC)cc3)c12 | 103

Continued.
SMILES | GIV-Gai inh
CCCCCCCCCOCC1OC2OC(C)(C)OC2C2OC(C)(C)OC12 (configuration not stated) | 102
COc1ccc(NC(=O)CCc2c(C)nn(-c3ccc4nncn4n3)c2C)cc1 | 101
COc1ccc(C(=O)Cn2c(=O)n3nc(-c4cc(OC)cc(OC)c4)nc3c3ccccc32)cc1 | 98
Cc1nnc2ccc(N3CCOCC3)nn12 | 103
COc1cc(C2C(C(=O)OCCOc3ccccc3)=C(C)NC3=C2C(=O)CCC3)cc(OC)c1OC (configuration not stated) | 108
Cn1nc(-c2ccccc2F)c2cc(C(=O)Oc3ccccc3)sc21 | 107
CCOC(=O)c1sc2nc(SCC(=O)NCc3ccco3)n(CCc3ccc(OC)c(OC)c3)c(=O)c2c1C | 105
CC(=O)[C@@H]1[C@@H](c2ccccc2)C(C#N)(C#N)[C@H]2C=Cc3ccccc3N12 | 115
CCOc1ccc(C2=C(Cl)C=C(c3ccc(F)cc3)c3ccccc3O2)cc1 | 108
Cc1cc(N2C(=O)CSC2c2ccccc2[N+](=O)[O-])ccc1Br (configuration not stated) | 102
COc1cc(C2C(C(=O)N3CCOCC3)=C(C)NC3=C2C(=O)CC(C)(C)C3)cc(Cl)c1O (configuration not stated) | 94
CCN(Cc1ccccc1)Cc1cc(=O)n2[nH]c(-c3cccc(Cl)c3)cc2n1 | 101
Cc1cccc(C(=O)N2CCc3c([nH]c4ccccc34)C2)c1 | 104
Cc1ccc(-c2csc3c2ncn2c(=O)n(CC(=O)Nc4cc(F)ccc4C)nc32)cc1 | 99
COc1cc(NC(=O)Cn2nc(N(C)C)c3ccccc3c2=O)cc(OC)c1 | 102
Nc1c(C(=O)Nc2ccccc2)sc(=S)n1-c1ccccc1F | 109
Cn1nc(COCc2ccccc2)c2c1CCN(S(=O)(=O)c1ccccc1)C2 | 107
CC(=O)C1=C(C)NC(SCC(=O)c2ccccc2)=C(C#N)C1c1sccc1C (configuration not stated) | 112
Cc1c(N=Cc2ccccc2F)c(=O)n(-c2ccccc2)n1C | 101
CC(=O)NCc1nnnn1-c1ccc(C)c(C)c1 | 104
Cc1cc(N2CCCC2)nc2ccc(NC(=O)c3ccncc3)cc12 | 109
COCCCN1CCc2nc(SCc3cc(C)ccc3C)[nH]c(=O)c2C1 | 102
O=C(NCc1ccc2c(c1)OCO2)c1cccc(Nc2ncc(-c3cccc(F)c3)cn2)c1 | 103
O=C(CNS(=O)(=O)c1cc(-c2noc(C3CCC3)n2)cs1)Nc1ccc2c(c1)OCO2 | 104
CCOc1ccc2c(c1)-c1c(ssc1=S)C(C)(C)N2C(=O)CN1C(=O)c2ccccc2C1=O | 111
Cn1nc(CC(=O)Nc2ncc(Br)s2)c2ccccc2c1=O | 107
Cc1[nH]nc(-c2c(C)sc(C)c2S(=O)(=O)NC2CCC(C)CC2)c1C (configuration not stated) | 111
COc1ccc2c(c1)C1CC(C)(NC(=O)C1c1nc3ccccc3s1)O2 (configuration not stated) | 106

The list is partial. The share of hits here may be higher or lower than overall.
